# GIV-Gai inh = GIV-Galpha-i interaction inhibition; P08753; Galpha-i3/FITC-GIV peptide fluorescence polarization, 90 min; stronger effect = lower value; scaled: aluminum fluoride 0%, vehicle 100%; percent of control (FP), % (concentration not given with the values); 210,000 compounds, 0.42% hits; AID 1224905;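 active means replicate mean at 85% of control or lower, very high polarization wells dropped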;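 further: wells of about 15 µL received 100 nL stock; the first replicate is given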
# Target sequence (P08753 whole entry, looked up): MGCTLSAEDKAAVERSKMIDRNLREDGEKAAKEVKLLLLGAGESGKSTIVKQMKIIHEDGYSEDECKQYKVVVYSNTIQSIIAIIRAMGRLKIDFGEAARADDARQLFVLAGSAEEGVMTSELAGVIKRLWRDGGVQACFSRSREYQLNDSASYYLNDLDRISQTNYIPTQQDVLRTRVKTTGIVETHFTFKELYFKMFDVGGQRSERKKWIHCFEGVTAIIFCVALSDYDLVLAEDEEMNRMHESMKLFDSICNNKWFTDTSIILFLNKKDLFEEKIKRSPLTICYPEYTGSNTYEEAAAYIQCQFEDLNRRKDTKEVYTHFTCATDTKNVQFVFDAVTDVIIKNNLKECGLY
# HCMV NEC inh = inhibitors of HCMV UL50-UL53 nuclear egress complex interaction; HTRF UL50-UL53 interaction, normalized percent inhibition; AID 1918969; 190,000 compounds, 0.15% hits; inhibition, % (no concentration beside the values);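 active means both replicates at 50% or more, plus weaker picks with an unusually low signal ratio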;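 further: stock transfer was 100 nL into about 20 µL; 0% = negative control wells and 100% = wells with untagged competitor protein; inactives centre near -12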
# Sa growth inh = blocks Staphylococcus aureus growth; relative growth, % (no concentration beside the values); 170,000 compounds, 0.53% hits; AID 720641; S. aureus RN4220 growth, OD600, 20 h, 42 °C; stronger effect = lower value;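 active means growth at 42 °C up to 50% and 20 or more points under that at 30 °C, or under 10% at both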;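 further: 300 nL library stock went into each well; scaled to the means of positive and negative controls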
# Sa growth inh second temp = recorded beside Sa growth inh, whose call it bears; relative growth, %; measured here: growth at 30 °C;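 optical density after 20 h as mean of two plates; 100% = untreated growth and lower means inhibition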
# * hit, by the source's call; x = no result given; & = joins results of further samples.
1) CCC(C)(C)NS(=O)(=O)c1ccc(Cl)cc1F
2) COc1cccc(NC(=O)CSc2c3c(nc4ccccc24)CCCC3)c1
3) CC1CCCCN1CCNC(=O)c1nn(C)c2c1CCc1sccc1-2 (stereo unspecified)
4) O=C(CCC(=O)N1CC2CCCN2c2ccccc21)NCc1ccccc1F (stereo unspecified)
5) Cc1cc(C)n(-c2ccc(C(=O)OCc3nc4ccccc4c(=O)n3CC#N)cc2)n1
6) CCSc1ncc2c(=O)n(CC(=O)N3CCCCC3)cnc2n1
compound no.	1	2	3	4	5	6
Sa growth inh	116	92	x	116	91	x
Sa growth inh second temp	90	82	x	101	82	x
HCMV NEC inh	-19	-40	-7	x	-22	5
GIV-Gai inh	x	106	105	98	x	105

7) CCN1C(=O)c2cccc3c(Cl)cc(Cl)c1c23
8) O=C(O)C1CCCN(C(=O)c2ccccc2)C1 (stereo unspecified)
9) Cc1cccc2sc(NC(=O)[C@@H]3CCCN3C(=O)c3cccs3)nc12
10) Cc1ccc(S(=O)(=O)NCCN2CCNC2=O)cc1
11) Cc1occc1-c1nnc(SCc2nc3ccccc3s2)n1Cc1ccccc1
12) CCn1c(SCC(=O)N2CCC(C)CC2)nc2c(c1=O)SCC2
compound no.	7	8	9	10	11	12
Sa growth inh	82	96	97	93	91	94
Sa growth inh second temp	93	87	94	84	80	91
HCMV NEC inh	20	-14	-1	-37	-4	-9
GIV-Gai inh	x	103	x	106	x	101

13) Cc1ccc(/C=C/c2onc(C)c2S(=O)(=O)N2CCC(C(=O)NCC3CCCO3)CC2)cc1 (stereo unspecified)
14) CCCCOc1ccc(C(=O)N2CCN(CCc3ccccn3)CC2)cc1
15) Cc1cccc(N(C)C(=O)C(Cc2ccccc2)NS(=O)(=O)c2cccc3nsnc23)c1 (stereo unspecified)
16) CCCN(Cc1nnc(-c2ccccc2Cl)o1)C(=O)Cc1coc2cc(C)c(C)cc12
17) O=C(Oc1ccccc1-c1ccccc1)c1cncc(Br)c1
18) Cc1oc2ccc(O)c(CN3CCCC3)c2c1C(=O)Nc1ccccc1
compound no.	13	14	15	16	17	18
Sa growth inh	x	84	102	110	108	100
Sa growth inh second temp	x	86	91	89	90	88
HCMV NEC inh	-38	-12	-82	-23	-22	-9&-10
GIV-Gai inh	107	101	106	x	x	104&104

# Rewritten field by field: part of the list above
(14) CCCCOc1ccc(C(=O)N2CCN(CCc3ccccn3)CC2)cc1
  Sa growth inh: 84
  Sa growth inh second temp: 86
  HCMV NEC inh: -12
  GIV-Gai inh: 101
(15) Cc1cccc(N(C)C(=O)C(Cc2ccccc2)NS(=O)(=O)c2cccc3nsnc23)c1 (stereo unspecified)
  Sa growth inh: 102
  Sa growth inh second temp: 91
  HCMV NEC inh: -82
  GIV-Gai inh: 106

# (next part)
19) CCOC(=O)/C=c1\s/c(=C\c2cccs2)c(=O)n1CC(=O)N1CCCC1
20) Cc1ccc(CC(=O)N2CCCc3ccccc32)cc1
21) O=C(Nc1cccc(-c2cn3ccccc3n2)c1)c1cccs1
22) CCc1ccc(C2C(C#N)=C(C)NC3=C2C(=O)CC(C)(C)C3)cc1 (stereo unspecified)
23) O=c1c2c3c(sc2nc(Cc2ccccc2)n1Cc1cccc(Br)c1)CCCC3
24) O=C(O)C1Cc2c([nH]c3ccccc23)C(c2ccc(O)cc2)N1 (stereo unspecified)
compound no.	19	20	21	22	23	24
Sa growth inh	87	109	x	129	x	x
Sa growth inh second temp	96	98	x	69	x	x
HCMV NEC inh	-12	-8	-6	-12	-14	-26
GIV-Gai inh	x	108	104	x	97	106

25) CCOC(=O)CSc1nc2ccccc2[nH]1
26) Cc1cccc(N2CCN(C(=O)CCc3c(C)nc4ncnn4c3C)CC2)c1C
27) O=C(c1ccc(N2CCOCC2)nc1)N1CCCC1
28) COc1ccc(C(=O)COC(=O)CN2c3nc4ccccc4nc3C3C=CC=CC32)cc1 (stereo unspecified)
29) CC(C)Cn1c2ccccc2c2ccccc21
30) COCCCNc1nc2c(S(=O)(=O)c3ccccc3)nnn2c2ccc(Cl)cc12
compound no.	25	26	27	28	29	30
Sa growth inh	x	107	96	108	79	116
Sa growth inh second temp	x	93	108	100	103	96
HCMV NEC inh	-6	-18	2	-8	x	-10
GIV-Gai inh	100	101	98	x	105	103

31) COc1ccc(N2CCN(Cc3nnc(-c4ccc5c(c4)OCO5)o3)CC2)cc1
32) CCOC(=O)Cc1csc(NC(=O)c2ccccc2)n1
33) O=C(Nc1ccccc1Cl)C1COc2ccccc2O1 (stereo unspecified)
34) O=C(Cc1ccc(-n2cccc2)cc1)Nc1ccc(Cl)cc1
35) CCn1nc(C)c(Br)c1C(=O)Sc1ccc(OC)cc1
36) CCCCNC(=O)Cn1c(=O)sc2ccccc21
compound no.	31	32	33	34	35	36
Sa growth inh	120	102	x	97	92	97
Sa growth inh second temp	94	72	x	92	84	90
HCMV NEC inh	-6	x	-4	x	-10	-17
GIV-Gai inh	106	101	106	103	110	98

37) CCOC(=O)c1c(NC(=O)COc2cccc(C)c2C)sc2c1CCC(CC)C2 (stereo unspecified)
38) O=C(COn1nnc2ccc(Cl)cc21)NC(=O)NC1CCCCC1
39) Cc1cccc2c1NC(C)CC2C (stereo unspecified)
40) CCc1ccc2oc(-c3ccc(OC)cc3)cc(=NCC(=O)O)c2c1
41) CSc1ccccc1-c1nnc(NC(=O)c2ccc3c(c2)OCCO3)o1
42) CC1CN(C(=O)C2=NN(c3ccccc3)C(=O)CC2)CC(C)O1 (stereo unspecified)
compound no.	37	38	39	40	41	42
Sa growth inh	97	90	93	86	71	85
Sa growth inh second temp	92	76	81	12	77	99
HCMV NEC inh	-22	-26	-26	x	x	-12
GIV-Gai inh	109	x	101	97	112	x

43) Cc1nc2nc(CNc3ccccc3)nn2c(C)c1Cl
44) CCCC(=O)Oc1ccc2ccc(=O)oc2c1
45) CC(C)Sc1nnc(NC(=O)NC(C)(C)C)s1
46) CN(C(=O)c1cccc(Nc2cc(-c3ccccc3)ncn2)c1)C1CCCCC1
47) Cc1cc(F)ccc1Nc1c(C(=O)N2CCOCC2)cnc2ccccc12
48) CC(C)c1ccc(N2C=Nc3ccc(C(C)C)cc3C2)cc1
compound no.	43	44	45	46	47	48
Sa growth inh	x	100	104	x	x	92
Sa growth inh second temp	x	105	85	x	x	88
HCMV NEC inh	-10	-42	-15	-24	-14	12
GIV-Gai inh	112	99	101	104	99	103

49) Cc1cn2c(=O)cc(COc3ccccc3NC(=O)c3ccco3)nc2s1
50) C=CCNC(=O)c1cc(CCC)on1
51) COc1ccc(-c2noc(CCC(=O)NC3CCCCC3)n2)cc1
52) Cc1cc(C)n(-c2nnc(Nc3ccc(C)c(Cl)c3)c3ccccc23)n1
53) COC(=O)c1ccccc1NC(=O)Cn1c(-c2nonc2N)nc2ccccc21
54) CC(=O)N1CCc2cc(Br)cc(S(=O)(=O)N3CCN(c4cc(C)ccc4C)CC3)c21
compound no.	49	50	51	52	53	54
Sa growth inh	105	106	98	104	x	77
Sa growth inh second temp	87	74	85	99	x	92
HCMV NEC inh	-26	-10	-4	-4	-4	-7
GIV-Gai inh	100	98	100	104	109	108

55) Cc1cc(C)cc(-n2c(SCC(=O)NCc3ccc(F)cc3)nc3c(c2=O)SCC3)c1
56) O=C(c1ccc(Cl)cc1)n1nc(-c2ccco2)nc1NCc1cccs1
57) CS(=O)(=O)NCC(c1ccco1)N1CCN(c2ccc(F)cc2)CC1 (stereo unspecified)
58) COCCn1ccc2c(OCC(=O)c3ccccc3)cccc2c1=O
59) CN1C(=O)/C(=C/c2cn(CC(=O)N3CCCC3)c3ccccc23)c2ccccc21
60) COc1ccc(OC)c(NC(=O)CSc2nc(=O)n(CCN(C)C)c3c2CCC3)c1
compound no.	55	56	57	58	59	60
Sa growth inh	80	99	93	107	113	115
Sa growth inh second temp	88	86	94	89	88	91
HCMV NEC inh	x	-37	x	-18	x	x
GIV-Gai inh	99	101	98	100	99	91

61) O=C(c1cccc(N2C(=O)c3ccccc3C2=O)c1)N1CCOCC1
62) CC(NC(=O)Cc1c(F)cccc1Cl)C1CCCO1 (stereo unspecified)
63) Cc1csc2nc(CNS(=O)(=O)c3ccc(F)cc3)cn12
64) O=C1CCCN1CCCNc1ccc(Cl)nn1
65) O=C(Nc1ccccc1C(F)(F)F)c1ccc(Cn2cnnn2)cc1
66) O=C1CSC2=NC3=C(CCc4ccccc43)C(c3cccs3)N12 (stereo unspecified)
compound no.	61	62	63	64	65	66
Sa growth inh	98	103	x	99	108	90
Sa growth inh second temp	112	99	x	83	86	81
HCMV NEC inh	-19	-13	-14	-2	1	-5
GIV-Gai inh	100	101	101	101	x	106

67) CCc1nnc(NC(=O)CCCc2nc(-c3ccccc3)no2)s1
68) Cn1c(=O)c(Nc2ccccc2)c2c3c(cccc31)C(=O)c1ccccc1-2
69) CCC(CC)C(=O)Nc1ccccc1Cl
70) Cc1cc(C)c2c(n1)sc1c(=O)n(C)cnc12
71) Cc1ccc(SCc2cc(=O)n3nc(C)sc3n2)cc1
72) O=C(CSc1nnc2ccccn12)Nc1ccc(S(=O)(=O)N2CCCCC2)cc1
compound no.	67	68	69	70	71	72
Sa growth inh	x	111	122	102	96	93
Sa growth inh second temp	x	93	76	93	96	88
HCMV NEC inh	-12	x	-13	-4	-4	-24
GIV-Gai inh	108	116	101	103	108	x

73) CN1CCc2c(n(CC(O)CN(CCO)CCO)c3ccccc23)C1=O (stereo unspecified)
74) O=S(=O)(Cc1ccccc1)c1nc2ccccc2[nH]1
75) COc1ccccc1OCC#CCn1cnc2ccccc2c1=O
76) O=C(c1cc(-c2cccnc2)n[nH]1)N1CCCC(C(=O)N2CCN(c3ccc(Cl)cc3)CC2)C1 (stereo unspecified)
77) O=C(Nc1cccc(C(F)(F)F)c1)c1noc2c1CCc1ccccc1-2
78) COc1cc(NC(=O)COCc2cc(-c3ccc(F)cc3)on2)cc(OC)c1OC
compound no.	73	74	75	76	77	78
Sa growth inh	95	80	108	x	97	111
Sa growth inh second temp	90	86	96	x	89	75
HCMV NEC inh	-20	-6	-25	-29	-8	-10
GIV-Gai inh	98	108	103	100	99	94

79) Cc1cc(OCc2ccc(Br)cc2)nc(-c2ccccc2O)n1
80) O=C(CSc1ncccn1)NC1CC1
81) COc1ccc(-c2cc(C(F)(F)F)nc(SCCC(=O)Nc3cccc(O)c3)n2)cc1
82) NC(=O)C1CCN(C(=O)c2cccc(-n3nnc4cccnc43)c2)CC1
83) O=C(/C=C/c1ccco1)NCCCN1CCN(CCCNC(=O)/C=C/c2ccco2)CC1
84) CC(=O)N1CCC2(CC1)NCCc1[nH]cnc12
compound no.	79	80	81	82	83	84
Sa growth inh	96	119	116	x	104	x
Sa growth inh second temp	77	87	92	x	100	x
HCMV NEC inh	-5	-14	-4	-36	-20	-16
GIV-Gai inh	x	x	96	96	108	98

# Reprinted from the part before: four entries, followed by the next part.
81) COc1ccc(-c2cc(C(F)(F)F)nc(SCCC(=O)Nc3cccc(O)c3)n2)cc1
82) NC(=O)C1CCN(C(=O)c2cccc(-n3nnc4cccnc43)c2)CC1
83) O=C(/C=C/c1ccco1)NCCCN1CCN(CCCNC(=O)/C=C/c2ccco2)CC1
84) CC(=O)N1CCC2(CC1)NCCc1[nH]cnc12
85) Cc1cccc(-c2noc(-c3ccc(NCc4ccccc4)c([N+](=O)[O-])c3)n2)c1
86) Cc1oc2ncnc(N3CCCC(C(=O)Nc4ccccc4Cl)C3)c2c1C (stereo unspecified)
87) CCCc1ccc(S(=O)(=O)NCCn2c(C(F)(F)F)nc3cccnc32)cc1
88) CC(=O)Nc1ccc(C)cc1-c1nc2ccccc2n(C(C)C(=O)Nc2cccc(C)c2C)c1=O (stereo unspecified)
89) CC(=O)Nc1ccc(Nc2ncnc3sc4c(c23)CCCC4)cc1
90) CCCC(=O)N1CCC2(CC1)Nc1cc(F)ccc1-n1cccc12
compound no.	81	82	83	84	85	86	87	88	89	90
Sa growth inh	116	x	104	x	102	x	x	x	98	x
Sa growth inh second temp	92	x	100	x	90	x	x	x	81	x
HCMV NEC inh	-4	-36	-20	-16	-11	-24	-19	-27	x	-23
GIV-Gai inh	96	96	108	98	107	100	112	97	99	102

91) COc1cn(CC(=O)Nc2cc(C)ccc2C)c(CN2CCCCC2)cc1=O
92) CC1CCCN(c2nc3c(-c4ccc(Cl)cc4)nnn3c3ccccc23)C1 (stereo unspecified)
93) O=C1CCCC2=C1C(c1ccc3c(c1)OCO3)c1c([nH]c(=O)[nH]c1=O)N2 (stereo unspecified)
94) CC(C)(C)OC(=O)N1CCC(c2c(C(=O)N3CCc4ccccc4C3)cnn2-c2ccc(F)cc2)CC1
95) S=C1NC2(CCS1)Oc1ccccc1C1CC(c3ccccc3)=NN12 (stereo unspecified)
96) Cc1oc2c3c(ccc2c(=O)c1-c1ccc(F)cc1)OCO3
compound no.	91	92	93	94	95	96
Sa growth inh	107	115	101	82	95	104
Sa growth inh second temp	100	89	88	95	34	88
HCMV NEC inh	x	-34	-20	x	x	-28
GIV-Gai inh	103	110	103	102	183	x

97) Cc1sc(N)nc1-c1cccs1
98) CCNC(=O)c1nn(-c2ccccc2C)nc1CO
99) CC(C)Cn1c(-c2cccc(Br)c2)nc2ccccc21
100) CCOCCOC(=O)C1=C(C)NC(=O)NC1c1cccc(OCc2ccccc2)c1 (stereo unspecified)
compound no.	97	98	99	100
Sa growth inh	83	92	83	x
Sa growth inh second temp	100	90	67	x
HCMV NEC inh	-18	-1&-23	-23	-18
GIV-Gai inh	93	103&103	102	100

# High-throughput results (PubChem)
